GIV-Gai inh: GIV-Galpha-i interaction inhibition; Galpha-i3/FITC-GIV peptide fluorescence polarization, 90 min; active compounds read low; scaled: aluminum fluoride 0%, vehicle 100%; percent of control (FP), % (concentration not given with the values); hit rate 0.42% among 210,000; AID 1224905;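 active means replicate mean at 85% of control or lower, very high polarization wells dropped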;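 further: wells of about 15 µL received 100 nL stock; the first replicate is given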
Target sequence (P08753 whole entry, looked up): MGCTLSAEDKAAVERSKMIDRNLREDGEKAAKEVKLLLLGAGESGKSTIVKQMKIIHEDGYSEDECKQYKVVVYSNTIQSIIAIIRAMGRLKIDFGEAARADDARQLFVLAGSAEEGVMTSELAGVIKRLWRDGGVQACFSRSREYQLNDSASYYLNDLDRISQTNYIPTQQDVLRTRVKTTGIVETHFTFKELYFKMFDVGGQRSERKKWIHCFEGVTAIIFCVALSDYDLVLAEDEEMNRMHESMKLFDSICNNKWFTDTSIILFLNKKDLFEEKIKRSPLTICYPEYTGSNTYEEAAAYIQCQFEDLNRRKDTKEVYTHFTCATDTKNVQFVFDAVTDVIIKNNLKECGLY
HCMV UL50-53 inh: cytomegalovirus nuclear egress complex inhibition | HTRF UL50-UL53 interaction, normalized percent inhibition | inhibition, % (concentration not given with the values) | hit rate 0.15% among 190,000 | AID 1918969;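 active means both replicates at 50% or more, plus weaker picks with an unusually low signal ratio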;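 further: stock transfer was 100 nL into about 20 µL; 0% = negative control wells and 100% = wells with untagged competitor protein; inactives centre near -12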
Sa growth 42C: inhibitors of Staphylococcus aureus growth at 42 °C; S. aureus RN4220 growth, OD600, 20 h; active compounds read low; relative growth, % (concentration not given with the values); hit rate 0.53% among 170,000; AID 720641;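 active means growth at 42 °C up to 50% and 20 or more points under that at 30 °C, or under 10% at both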;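 further: 300 nL library stock went into each well; scaled to the means of positive and negative controls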
Sa growth 42C second temp: second read-out of Sa growth 42C, no call of its own (marks repeat the call); relative growth, %; measured here: growth at 30 °C;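 optical density after 20 h as mean of two plates; 100% = untreated growth and lower means inhibition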
* marks the source's active call; other numbers are inactive results; . = not tested or not shown; & = joins results of further samples.

The first two entries (preview)
(1) CCCN(CCC)C(=O)c1cc2c(=O)n(CC)c3ccccc3c2s1
(2) O=C(O)CCSc1nc2ccccc2s1

entry no.	1	2
GIV-Gai inh	101	98
HCMV UL50-53 inh	.	-18
Sa growth 42C	33	104
Sa growth 42C second temp	38	85

The whole of this part, repeating the preview:
(1) CCCN(CCC)C(=O)c1cc2c(=O)n(CC)c3ccccc3c2s1
(2) O=C(O)CCSc1nc2ccccc2s1
(3) CCOCCC(=O)Nc1nccs1
(4) CC(NC(=O)c1nn(C)c(=O)c2ccccc12)c1ccc(F)cc1 (stereo unspecified)
(5) COc1cccc(-c2nnc3n(CCc4ccccc4)c(=O)c4ccccc4n23)c1O
(6) O=C(Oc1ccc(-c2ccccc2)cc1)c1ccco1
(7) CCCCNS(=O)(=O)c1ccc(NC(=O)c2cc(-c3ccccc3)nc3ccccc23)cc1
(8) N#CCCN(C1CCCCC1)S(=O)(=O)c1cccc2nsnc12

entry no.	1	2	3	4	5	6	7	8
GIV-Gai inh	101	98	100	.	100	98	94	101
HCMV UL50-53 inh	.	-18	-19	-7	12	.	-10	-75
Sa growth 42C	33	104	98	107	95	94	.	104
Sa growth 42C second temp	38	85	84	84	87	89	.	84

(9) CN(Cc1ccccc1)C(=O)c1c[nH]c2ccc(S(=O)(=O)Nc3ccccc3F)cc2c1=O
(10) Cc1cccc(NC(=O)CSc2nnc3ccccn23)c1
(11) N#C/C(=C\c1c(Oc2ccccc2)nc2ccccn2c1=O)S(=O)(=O)c1ccccc1
(12) COc1ccc(NC(=O)Cn2nnc(-c3nc(-c4ccncc4)no3)c2N)cc1OC
(13) Cc1ccc(S(=O)(=O)n2nc(-c3ccccc3)nc2NCc2ccccc2Cl)cc1
(14) Clc1cccc(C=Nc2ccc(N3CCOCC3)cc2)c1Cl
(15) CCCNC(=O)Nc1ccc2c(c1)oc1ccccc12
(16) CN1C(=O)C2(c3ccccc31)N(c1cccc(F)c1)C(=O)CS2(=O)=O (stereo unspecified)

entry no.	9	10	11	12	13	14	15	16
GIV-Gai inh	98	104	100	110	104	99	.	115
HCMV UL50-53 inh	-6	4	.	.	-3	.	-1	.
Sa growth 42C	95	108	105	144	100	98	115	113
Sa growth 42C second temp	77	91	86	72	94	87	92	104

(17) COc1cc2nc(N3CCN(C(=O)C4CCCO4)CC3)nc(N)c2cc1OC (stereo unspecified)
(18) COc1cccc(NC(=O)Nc2cc(-c3cn4cccnc4n3)ccc2OC)c1
(19) c1ccc(Oc2cccc(CSc3ncn[nH]3)c2)cc1
(20) CCOc1ccc(C2CC(=O)Nc3cc4c(cc32)OCO4)cc1OC (stereo unspecified)
(21) Cc1cccc(C)c1NC(=O)Cn1nnc(C(=O)NCc2ccc(F)cc2)c1N
(22) Cc1ccc(C(=O)C(CC(=O)Nc2ccc(F)c(F)c2)c2nc3ccccc3[nH]2)cc1 (stereo unspecified)
(23) Cc1ccccc1-c1nc2scc(CCNS(=O)(=O)c3cccc(Cl)c3)n2n1
(24) Cc1cccc(N2CCN(C(=O)c3ccc(NC(N)=O)cc3)CC2C)c1 (stereo unspecified)

entry no.	17	18	19	20	21	22	23	24
GIV-Gai inh	105	106	95	108	102	.	104	.
HCMV UL50-53 inh	-35&-11&-7&-61&-10&-47	-34	-10	0	.	-10	-22	-12
Sa growth 42C	106&94	94	99	97	84	97	.	65
Sa growth 42C second temp	108&83	83	81	88	91	83	.	92

(25) CCn1c(=O)c(NC(=O)c2ccccc2)c2n(c1=S)CCCCC2
(26) CON(C)CC(=O)Nc1cc(Cl)cc(Cl)c1
(27) Cc1ccc(CNC(=O)c2nn(-c3ccc(Cl)cc3)nc2CO)cc1
(28) Cc1ccc(C)c(N2CCN(C(=O)c3ccc(NC(=O)c4nsc5ccccc45)cc3)CC2)c1
(29) CC(C)SCc1nc2ccccc2[nH]1
(30) CCOC(=O)c1cc(-c2ccc(F)cc2)n(CCC(=O)Nc2ccccc2OC)c1C
(31) CCCSc1nc2c(c(=O)[nH]1)CCCC2
(32) CC(=O)Nc1ccc2c(c1)nc(CN1CCCC1)n2C

entry no.	25	26	27	28	29	30	31	32
GIV-Gai inh	.	.	101	112	.	102	97	99
HCMV UL50-53 inh	-16	-13	-22	.	-11	.	-19	.
Sa growth 42C	96	105	111	117	115	96	.	109
Sa growth 42C second temp	88	95	94	104	89	91	.	86

(33) CC(C(=O)NCc1ccc(Cl)cc1)n1ccc2cc(S(=O)(=O)N3CCCCCC3)ccc21 (stereo unspecified)
(34) CCCc1ccc(-c2ccc(C#N)cc2)nc1
(35) CC(C)Sc1ncc(Cl)c(C(=O)Nc2ccc(S(=O)(=O)Nc3ncccn3)cc2)n1
(36) c1ccc(CN2CCn3c(nc4ccccc43)C2)cc1
(37) CSc1cccc(NC(=O)CSc2ccc(C)cc2)c1
(38) O=c1[nH]c(SCc2ccccc2)nc2nc[nH]c12
(39) COc1ccc2[nH]c(=O)c(CN(Cc3cccnc3)C(=O)Nc3ccccc3)cc2c1
(40) COc1cc(NC(=O)Cn2c(=O)n(CC3CCC(C(=O)NCCc4ccccc4)CC3)c(=O)c3ccccc32)cc(OC)c1 (stereo unspecified)

entry no.	33	34	35	36	37	38	39	40
GIV-Gai inh	108	103	98	97	104	102	99	105
HCMV UL50-53 inh	.	5	-15	-8	-12	.	10	12
Sa growth 42C	129	99	83	.	74	99	85	94
Sa growth 42C second temp	101	87	82	.	90	72	89	85

(41) CC1(C)CC(=O)c2c(SCCOC(=O)c3ccccc3Cl)sc(C#N)c2C1
(42) CCS(=O)(=O)CCSc1nc(-c2ccc(Br)cc2)cc(-c2ccccc2)c1C#N
(43) CCCSc1nnc2c3ccccc3n(CC)c2n1
(44) Cc1ccc(SCC#N)cc1C
(45) CCOC(=O)C1CCN(C(=O)c2ccc3c(c2)CCCN3S(C)(=O)=O)CC1
(46) CC1=CC(=O)C2(C)C3CCC4CC(=O)CCC4(C)C3=CCC2S1(=O)=O (stereo unspecified)
(47) Cn1cnc(S(=O)(=O)N2CCC(C(=O)Nc3ccc(F)c(Cl)c3)CC2)c1
(48) C=C(C)c1c2c(c(Cl)c3ccccc13)C[N+](CC)(CC)C2

entry no.	41	42	43	44	45	46	47	48
GIV-Gai inh	100	104	98	.	103	101	104	101
HCMV UL50-53 inh	-16	-45	.	-15	-19	-7	-16	.
Sa growth 42C	105	97	84	82	97	93	.	90
Sa growth 42C second temp	90	92	66	95	79	81	.	89

(49) Cc1cccc2cc(CN(CC3CCCO3)C(=O)CC(C)(C)C)c3nnnn3c12 (stereo unspecified)
(50) O=c1oc2ccccc2cc1-c1cn2cc(Cc3cccc(C(F)(F)F)c3)sc2n1
(51) CN(C)Cc1cc(C(C)(C)C)cc(CN(C)C)c1O
(52) COCCc1nnc(N)s1
(53) CCC(Sc1nc2ccccc2c2nc(CCc3c(C)n[nH]c3C)nn12)C(=O)Nc1ccccc1F (stereo unspecified)
(54) CNC(=O)c1ccc(NC(=O)N2CCCCc3ccccc32)cc1
(55) COc1ccc(NC(=O)C2CCN(S(=O)(=O)c3cc4c(cc3C)NC(=O)CO4)CC2)cc1OC
(56) COc1ccccc1NC(=O)Cn1c(=O)n(CCc2ccccc2)c(=O)c2sc3ccccc3c21

entry no.	49	50	51	52	53	54	55	56
GIV-Gai inh	97	103	110	100	107	105	98	103
HCMV UL50-53 inh	2	.	0	-9	.	-9	3	-9
Sa growth 42C	105	121	96	107	133	.	.	99
Sa growth 42C second temp	85	99	99	97	83	.	.	92

(57) COc1ccc(S(=O)(=O)N2CC(=O)N(Cc3ccccc3)C(C)(C(=O)NC3CCCCC3)C2)cc1 (stereo unspecified)
(58) Cn1ccc(-c2cc(C(=O)O)c3ccccc3n2)n1
(59) N#Cc1c2ccc(OCC(N)=O)cc2n2ccccc12
(60) O=C(Nc1nc(-c2ccccc2)cs1)C1CCC1
(61) N#Cc1ccc(Cl)cc1N=Cc1cccs1
(62) Cc1ccc(CCNC(=O)C(C)N2C(=O)CC(C)(C)Sc3ccccc32)cc1 (stereo unspecified)
(63) Cc1ccnc(NC(c2ccccc2)c2cc(C)sc2NC(=O)c2ccccc2)c1 (stereo unspecified)
(64) C=CCn1c(CN(c2ccc(F)cc2)S(C)(=O)=O)nnc1SCC(N)=O

entry no.	57	58	59	60	61	62	63	64
GIV-Gai inh	97	102	103	.	.	102	113	104
HCMV UL50-53 inh	-32	-31	-17	-5	-31	0	-4	-20
Sa growth 42C	.	93	.	108	107	128	.	.
Sa growth 42C second temp	.	80	.	108	86	114	.	.

(65) CC(=O)Oc1c(Br)cc2oc(=O)sc2c1Br
(66) CCOc1ccc(C(=O)Nc2cc(NC(=O)c3ccco3)ccc2OC)cc1Br
(67) CC1CC(C)CN(CCCNC(=O)c2ccc3c(c2)N(C)CCS3)C1 (stereo unspecified)
(68) CC1=C(C#N)C(=O)N(CCc2ccccc2)C(=O)/C1=C\c1ccc(-c2ccccc2)o1
(69) NS(=O)(=O)c1ccc(NC(NC(=O)c2ccco2)C(=O)c2ccc(Cl)cc2)cc1 (stereo unspecified)
(70) CCN(CC)Cc1ccc(C(=O)NCc2ccc(Cl)cc2)o1
(71) COC(=O)c1cc2sc(C)cc2n1Cc1ccc(F)cc1Cl
(72) COc1nc(NCC(C)C)nc(Oc2ccc(=O)n(-c3ccccc3)n2)n1

entry no.	65	66	67	68	69	70	71	72
GIV-Gai inh	106	106	101	109	103	.	99	95
HCMV UL50-53 inh	12	.	-1	.	-42	-27	-34	1
Sa growth 42C	33	113	103	93	102	95	102	89
Sa growth 42C second temp	1	98	97	95	85	78	86	92

Part of the list above, with bars between the fields:
entry | SMILES | GIV-Gai inh | HCMV UL50-53 inh | Sa growth 42C | Sa growth 42C second temp
65 | CC(=O)Oc1c(Br)cc2oc(=O)sc2c1Br | 106 | 12 | 33 | 1
66 | CCOc1ccc(C(=O)Nc2cc(NC(=O)c3ccco3)ccc2OC)cc1Br | 106 | . | 113 | 98
67 | CC1CC(C)CN(CCCNC(=O)c2ccc3c(c2)N(C)CCS3)C1 (stereo unspecified) | 101 | -1 | 103 | 97

Following part.
(73) COc1ccc(-c2nc(CCNC(=O)COc3ccccc3Cl)cs2)cc1
(74) CC1CCCCC1NC(=O)COC(=O)c1ccc(Cl)c(S(N)(=O)=O)c1 (stereo unspecified)
(75) COC(=O)C1C(c2ccc(OC)c(OC)c2)C(C(=O)OC)S(=O)(=O)CS1(=O)=O (stereo unspecified)
(76) Cc1cc(NS(=O)(=O)c2ccc3nc(-c4ccccc4)[nH]c3c2)ccc1Br
(77) Cc1ccc(C)c(CN2C(=O)CSc3ccc(C(=O)NCc4ccc(F)cc4)cc32)c1
(78) COc1ccc(C2C(C(=O)Nc3ccccc3)=C(C)Nc3nc(-c4ccccc4Cl)nn32)cc1OC (stereo unspecified)
(79) CCCOc1cccc(C(=O)Nc2ccc(-c3nc4ccccc4s3)c(Cl)c2)c1
(80) O=C(Nc1ccc(-c2cn3c(n2)SCC3)cc1)c1ccc2c(c1)OCO2

entry no.	73	74	75	76	77	78	79	80
GIV-Gai inh	93	.	.	104	100	106	103	119
HCMV UL50-53 inh	-15	-14	14	-1	-5	-14	-4	-25
Sa growth 42C	.	117	100	104	118	104	79	99
Sa growth 42C second temp	.	90	93	94	86	82	92	74

(81) CCNc1nc(NC(C)C)nc(SCCOc2ccc(C)cc2)n1
(82) O=C(CC1N=C2c3ccccc3N=C(SCc3ccccc3Cl)N2C1=O)NCCc1ccccc1 (stereo unspecified)
(83) Cc1c(C(=O)OCCN2CCOCC2)oc2ccccc12
(84) O=C(Nc1ccccc1)c1ccc(CSc2ccc(C(F)(F)F)cn2)o1
(85) O=C(NCc1ccc(F)cc1)c1ccc2c(c1)nc1n2CCCCC1
(86) CC(C)(C)C(=O)/C=c1\[nH]c(=O)/c(=C\c2cccs2)s1
(87) O=C1CN(c2ccccc2)C(=O)CN1c1ccccc1
(88) CCCSc1nc2sc3c(c2c(=O)n1Cc1ccccc1)CC(C)(CC)OC3 (stereo unspecified)

entry no.	81	82	83	84	85	86	87	88
GIV-Gai inh	100	108	.	104	95	.	105	104
HCMV UL50-53 inh	12	.	-7	7	.	-14	-3	-23
Sa growth 42C	.	80	117	119	88	112	94	94
Sa growth 42C second temp	.	84	83	97	92	100	97	98

(89) NC(=O)c1ccccc1NC(=O)CCC(=O)O
(90) CCCN(CCC)C1=CC(=O)C(C)=C(C)C1=O
(91) CSc1nc(/C=N/O)ccc1C#N
(92) O=c1c(-c2ccn[nH]2)cnc2sc3ccccc3n12
(93) CCOC(=O)CN1C(=O)C(C(C)C)Oc2c(C(C)C)cccc21 (stereo unspecified)
(94) CCC1CN(C(=O)N2CCC(C(=O)NCCc3ccccc3Cl)CC2)c2cc(C)ccc2O1 (stereo unspecified)
(95) CC1CCN(Cc2ccccc2CO)CC1
(96) CS(=O)(=O)N1CCN(c2ccc(N)cc2)CC1
(97) O=C(Nc1ccc(N2CCCN(c3ncccn3)CC2)cc1C(=O)O)c1ccccc1Cl
(98) Cc1cc(C(=O)N2CCCC2)c2cccc(C)c2n1

entry no.	89	90	91	92	93	94	95	96	97	98
GIV-Gai inh	.	.	96	100	104	99	111	98	101	105
HCMV UL50-53 inh	-5	-54	-14	-34	-11	4	.	-5	-17	-25
Sa growth 42C	104	54	105	.	94	119	92	88	.	.
Sa growth 42C second temp	88	45	71	.	89	107	98	99	.	.
